rRNA inh HTS: selective bacterial rRNA inhibition in E. coli; E. coli WT GFP vs humanized-ribosome RFP mutants, fluorescence, 24 h; hits give low values; DMSO median 0, no signal -100; GFP signal change (wild-type ribosome), % (test concentration not listed); 350,000 compounds, 1.6% hits; AID 720706;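 active means significant combined selectivity score with lowered wild-type GFP, culture density cut under 30%, mutant RFP and density less affected; inactive means any of these conditions unmet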; further: one replicate is shown; some compounds called inactive have numbers as strong as hits
FGF22 binding: FGF22 (human) thermal shift binding; recombinant FGF22 thermal shift, SYPRO orange fluorescence; percent of sucrose octasulfate shift, DMSO zero; AID 651658; Q9HCT0; 340,000 compounds, 1.5% hits; calls only at 9.99 µM;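 active means melting point raised past a set limit in the mean and every replicate; inconclusive means no clear call; three in four hits are not shown here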
Target sequence (Q9HCT0 whole entry, looked up): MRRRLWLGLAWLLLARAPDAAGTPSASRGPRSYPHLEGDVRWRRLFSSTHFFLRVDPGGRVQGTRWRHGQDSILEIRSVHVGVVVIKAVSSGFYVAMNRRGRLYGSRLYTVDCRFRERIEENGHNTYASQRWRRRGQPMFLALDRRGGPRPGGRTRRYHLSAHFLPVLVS
HNF4A DNA FP: change in binding of human HNF4 alpha to DNA. 360,000 compounds, 0.3% hits. HNF4a-FITC DNA binding, fluorescence polarization, 1 h. P41235. activity change, % at 10 µM; in the data active means activity change above about 30%, passing the limit was not always enough;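 further: controls were the assay level and a saturating level of protein; the project sought stronger binding though the title names inhibitors; some compounds called inactive have numbers as strong as hits; positive values seem to mean higher polarization but the record does not say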
Vif A3G: HIV-1 Vif–A3G interaction blockers – biochemical, TR-FRET, GST-Vif 1-94, biotin-A3G peptide, dose response retest, primary screen (AID 1117319). TR-FRET GST-Vif / biotin-A3G peptide binding; higher % means a stronger effect; test concentration not given here; strong numbers were not always called active. inhibition, %; hits with a dose series show IC50 in µM. 260,000 compounds, 0.57% hits;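 active means above the screen mean plus three standard deviations and confirmed in dose response; inconclusive means results disagree or hit not tested in dose response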;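 further: Vif residues 1-94 fused to GST binding biotinylated APOBEC3G peptide 110-148; 0% = full assay without inhibitor and 100% = GST in place of GST-Vif; retest series ran down from 100 µM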
AF4-AF9 inh: MLL-AF4/AF9 protein interaction inhibition | AlphaScreen, biotin-AF4 peptide binding to FLAG-AF9 | inhibition, % at 10 µM | AID 651704 | 350,000 compounds, 0.47% hits;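 active means every replicate reaching a set inhibition limit, whatever the replicate mean, cut at about 25% in these data; inconclusive means mean inhibition reaches that limit but some replicates miss it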;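 further: 0% = plate neutral control median and 100% = total signal loss; the record names both 10 and 1 µM as test concentration; the first replicate is given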
Target sequence (P42568 whole entry, looked up): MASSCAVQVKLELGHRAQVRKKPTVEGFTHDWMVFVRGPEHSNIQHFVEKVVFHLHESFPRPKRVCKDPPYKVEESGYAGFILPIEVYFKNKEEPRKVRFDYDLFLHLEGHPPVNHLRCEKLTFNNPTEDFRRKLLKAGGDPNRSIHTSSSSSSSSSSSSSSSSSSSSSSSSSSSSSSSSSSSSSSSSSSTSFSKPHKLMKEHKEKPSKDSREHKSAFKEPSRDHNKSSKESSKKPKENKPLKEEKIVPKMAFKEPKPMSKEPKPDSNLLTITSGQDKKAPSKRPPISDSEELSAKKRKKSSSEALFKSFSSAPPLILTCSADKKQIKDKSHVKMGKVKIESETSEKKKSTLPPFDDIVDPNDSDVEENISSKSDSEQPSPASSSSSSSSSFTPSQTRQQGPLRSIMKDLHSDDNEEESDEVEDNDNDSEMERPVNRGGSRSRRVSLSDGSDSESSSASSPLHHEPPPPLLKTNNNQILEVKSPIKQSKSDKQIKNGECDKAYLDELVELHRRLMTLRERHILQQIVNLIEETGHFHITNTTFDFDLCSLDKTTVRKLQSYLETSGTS
ALR H2O2 inh: blocks human ALR sulfhydryl oxidase activity; P55789; purified ALR, DTT oxidation, H2O2 HRP-luminol luminescence; inhibition, % (no concentration beside the values); 290,000 compounds, 3.8% hits;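 active means mean and each replicate at 75% or more; inconclusive means only one of the two met; inactive means neither met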;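 further: stock transfer was 7.5 nL into about 7.5 µL; 0% = neutral wells and 100% = wells with inactivated enzyme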
Target sequence (P55789 whole entry, looked up): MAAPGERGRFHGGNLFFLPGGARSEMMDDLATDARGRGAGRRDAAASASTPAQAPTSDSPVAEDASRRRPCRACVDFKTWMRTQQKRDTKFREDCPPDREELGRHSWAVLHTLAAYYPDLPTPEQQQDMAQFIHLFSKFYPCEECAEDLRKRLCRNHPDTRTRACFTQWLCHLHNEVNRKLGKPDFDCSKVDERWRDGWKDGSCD
Ecoli growth: E. coli growth inhibition; 330,000 compounds, 0.21% hits; AID 1053175; Escherichia coli growth, OD600, 23 h; hits give low values; OD600 absorbance (test concentration not listed);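 active means OD600 absorbance below the run mean of sample wells minus 3.6 SD, in any replicate, cut at about 0.56 in these data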;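 further: stock transfer was 300 nL into about 60 µL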
rRNA inh HTS OD600: also measured in rRNA inh HTS; calls as there; OD600 change, %; measured here: OD600 growth;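 optical density of the mix in the first replicate; 0 = DMSO median and -100 = no signal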
rRNA inh HTS RFP: also measured in rRNA inh HTS; calls as there; RFP signal change, %; measured here: RFP humanized mutant strains;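 first replicate; 0 = DMSO median and -100 = no signal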
The depositor's hits bear a star; i = inactive; ? = inconclusive; . = not tested or not shown; & = joins results of further samples.

SMILES | rRNA inh HTS | rRNA inh HTS OD600 | rRNA inh HTS RFP | FGF22 binding | HNF4A DNA FP | Vif A3G | AF4-AF9 inh | ALR H2O2 inh | Ecoli growth
Cc1ccc(N2C(=O)c3cccc([N+](=O)[O-])c3C2=O)cc1C | 6.2 | 1.9 | 0.1 | i | 1.1 | -9.0% | -1.0 | . | 0.702
CCCN(CCC)C(=O)CC(c1ccccc1)C1CCOC(C)(C)C1 (centres undefined) | -2.8 | -10.1 | -1.7 | i | -4.4 | 5.0% | -0.5 | . | 0.7
CCC(=O)c1cc2c(C)cc(=O)oc2c(C)c1OC(=O)C(C)C | 5.0 | 4.5 | 2.0 | i | -2.0 | 7.7% | -4.3 | -4.3 | 0.677
CC(=O)Oc1cccc(/C=C2\Sc3ccccc3C2=O)c1 | -0.1 | -0.6 | 17.2 | i | 4.4 | . | 1.1 | . | 0.601
CCc1ccc(N(CC(=O)N2CCCC2)S(C)(=O)=O)cc1 | . | . | . | i | 6.0 | . | -1.2 | . | .
N#C/C(=N\Nc1ccc(F)cc1)C(=O)C1CC1 | -34.5* | -8.0* | -0.2* | i | 1.0 | . | . | 97.9* | .
CCC(CO)n1c(=S)[nH]c2cc(OC)c(OC)cc2c1=O (centres undefined) | -21.9* | -11.0* | 1.5* | i | 1.4 | 1.8% | -3.8 | 15.9 | 0.644
C[C@@H]1CN([C@@H](C)CO)C(=O)c2cccc(NC(=O)c3nc4ccccc4s3)c2O[C@@H]1CN(C)Cc1ccccc1 | -16.7 | -35.2 | 7.0 | i | . | . | 15.8 | . | .
Cc1occc1-c1nnc(SCC(=O)Nc2nccs2)n1CCc1ccccc1 | . | . | . | . | . | ? | . | -0.1 | 0.726
O=C(CSc1nnc(NC(=O)c2ccco2)s1)NC1CCCCC1 | . | . | . | . | -1.0 | -2.9% | . | -20.1 | 0.72
Cn1c(CNC(=O)C2CCC(=O)N(CCc3cccc(F)c3)C2)nc2ccccc21 (centres undefined) | 5.5 | 1.6 | -0.2 | i | 0.3 | . | -2.6 | -1.8 | 0.661
CCOC(=O)c1cccc(NC(=O)Cn2c(CC(=O)NC)nc3ccccc32)c1 | . | . | . | . | 13.7 | -2.6% | . | -2.9 | 0.685
Cc1cc(C)c[n+](-c2nc3ccccc3nc2[N-]S(=O)(=O)c2cccs2)c1 | -13.8 | 1.4 | 2.1 | i | 1.0 | . | -2.3 | . | 0.718
Cn1ncc2c(=S)nc(Cl)[nH]c21 | 9.1 | 13.1 | -0.4 | i | -2.1 | -5.7% | -3.4 | . | 0.691
Cc1ccc(Cl)c(OC(=O)c2ccc(N3CCOCC3)c([N+](=O)[O-])c2)c1 | . | . | . | . | -0.7 | . | . | -1.2 | 0.671
O=C(N[C@@H]1CC[C@@H](CC(=O)N2CCN(c3ccccc3)CC2)O[C@H]1CO)c1ccncc1 | 0.2 | -1.3 | 1.0 | i | . | . | -0.3 | . | .
COc1cc(Cl)c(C)cc1NC(=O)CSCC#N | . | . | . | . | 0.4 | 2.2% | . | -10.8 | 0.693
C[C@@H]1C=C(C(=O)N2CCN(Cc3ccccc3)CC2)O[C@H](OCc2ccc(CO)cc2)C1 | -7.6 | -16.2 | -0.3 | i | 5.2 | 8.2% | -0.5&1.6 | -5.4 | .
Cn1ccc(C(=O)N/N=C/c2c[nH]c3ccccc23)n1 | 0.1 | 4.9 | -1.6 | i | -1.9 | . | 9.5 | . | .
O=C(CSc1nc2[nH]ncc2c(=O)[nH]1)Nc1ccccc1 | 12.3 | 12.0 | -0.7 | i | -0.1 | -8.2% | -2.0 | -3.6 | 0.666
CCCCn1c(O)c(C=NCCCN(C)C)c(=O)[nH]c1=O | . | . | . | . | -1.8 | 18.0% | . | -2.7 | 0.688
Cc1cc(C(C)(C)C)cc(C)c1CCNC(=O)c1c(C)noc1C | -4.7 | -20.7 | 6.1 | i | -0.3 | -8.2% | 0.6 | . | 0.688
O=C(C[C@@H]1CC[C@@H]2[C@H](COC[C@@H](O)CN2C(=O)Nc2ccc(F)cc2)O1)NC1Cc2ccccc2C1 | -2.4 | 1.8 | -5.5 | i | . | . | -2.5 | . | .
c1ccc(-c2cc3ccccc3[nH]2)cc1 | 2.3 | 3.0 | 0.0 | i | 0.7 | . | -0.6 | 13.0 | 0.651
Cc1c(/C=N/NC(=O)C2(O)c3ccccc3-c3ccccc32)cnn1C | 5.1 | 14.0 | 5.1 | i | 3.7 | 3.5% | -0.1 | . | .
CCNC(=O)C1(C)CCCN(C(=O)c2oc3ccccc3c2C)C1 (centres undefined) | 1.8 | 7.5 | -0.9 | i | 0.4 | . | -1.9 | . | .
CCc1nc2sc(C#N)c(N)c2c2c1CCCC2 | . | . | . | . | 2.8 | 27.0% | . | . | 0.713
COCC(=O)N(Cc1cc2cccc(C)c2[nH]c1=O)c1ccccc1 | 1.7 | 1.4 | -0.7 | i | 0.2 | . | 0.4 | -5.7 | 0.689
COc1cc(-c2n[nH]c(=S)n2C(C)c2ccccc2)cc(OC)c1OC (centres undefined) | -12.3 | -7.2 | 1.4 | i | 1.9 | . | -5.2 | 92.7* | 0.664
CN1/C(=C/C=C/c2n(C)c3cc([N+](=O)[O-])c([N+](=O)[O-])cc3[n+]2C)C(C)(C)c2ccccc21 | -58.6* | -44.6* | 29.7* | i | 95.1* | . | 55.5* | . | .
O=C(CC1CC1)Nc1ccc2c(c1)[C@@H]1C[C@H](CC(=O)NC3CCCCC3)O[C@@H](CO)[C@@H]1O2 | 1.1 | -2.5 | -0.5 | i | . | . | -0.8 | . | .
CCOC(=O)c1ccc(N=c2sc(C(=O)OC)cc(=O)n2C2CC2)cc1 | . | . | . | . | -3.7 | 0.6% | . | . | 0.726
Cc1nc2ccc(S(=O)(=O)NCC(=O)NC(C)c3ccccc3)cc2s1 (centres undefined) | -1.6 | -0.6 | -1.5 | i | -1.1 | 16.2% | -0.2 | -8.7 | 0.706
CC1CCCC(C)N1CC(O)Cn1c2ccccc2c2ccccc21 (centres undefined) | 1.7 | -5.9 | -5.9 | i | -0.2 | . | -2.4 | -31.7 | 0.659
Cc1c(N=Cc2ccc[nH]2)c(=O)n(-c2ccccc2)n1C | 12.8 | 5.3 | -4.3 | i | 1.9 | 7.0% | 9.2 | 97.0* | 0.691
CCc1ccccc1-n1ncc(C(=O)Nc2ccc(OC)cc2)c1C | -14.9 | -10.3 | -2.9 | i | -5.7 | . | 2.8 | . | .
O=C(NNC(=O)c1ccncc1)Nc1ccccc1 | 6.9 | 13.1 | 0.5 | i | 1.8 | . | 0.7 | 33.5 | 0.688
O=C(COC(=O)Cc1ccccc1F)NNC(=O)c1ccc([N+](=O)[O-])cc1 | -0.3 | 6.7 | -2.3 | i | -1.8 | -11.4% | -0.5 | -6.9 | 0.688
C/C(=N\O)c1noc(C)c1C(=O)Nc1nccs1 | 8.3 | 3.9 | -0.1 | i | 0.6 | -1.9% | -0.6 | -15.8 | .
CC(C)CCNC(=O)c1c[nH]c2ccc(S(=O)(=O)N3CCOCC3)cc2c1=O | -2.0 | -2.7 | 1.1 | i | -2.7 | . | 1.3 | 2.1 | 0.689
CCOC(=O)N1CCC(N2Cc3cccc(C(=O)Nc4c(C)cccc4CC)c3C2=O)CC1 | -5.0 | -5.5 | 0.4 | i | 0.3 | . | 8.8 | -3.1 | 0.634
CC1Cc2ccccc2N1C(=O)CSc1nc2c(c(=O)n(C)c(=O)n2C)n1Cc1ccccc1 (centres undefined) | . | . | . | . | 2.8 | 3.0%&-8.0% | . | -5.5 | 0.686
CCCc1cc(=O)oc2cc(C)cc(OCC(=O)N3CCC(C(N)=O)CC3)c12 | 20.4 | 19.9 | 10.7 | i | 1.4 | . | -1.4 | -20.5 | 0.701
O=C1NC(=Nc2ccccc2)S/C1=C/c1cccs1 | -4.3 | 2.4 | 4.6 | . | 63.8* | . | 0.1 | -9.4 | .
COC(=O)COc1ccc(-c2nccc(-c3ccc(Br)cc3)n2)cc1 | 15.7 | 9.3 | 1.1 | i | 2.4 | -19.1% | 0.5 | 2.3 | 0.699
OC[C@@H]1CN(Cc2ccc(F)cc2)C[C@H](n2cnc3c(N4CCOCC4)ncnc32)O1 | . | . | . | i | 0.9 | . | -5.5 | . | .
Cc1ccc(-c2onc(C)c2C)cc1S(=O)(=O)N1CCOc2ccccc21 | -20.6 | -19.9 | -7.1 | i | 2.6 | . | -19.3 | -1.6 | 0.684
COc1cc([N+](=O)[O-])ccc1NC(=O)CC1SC(=Nc2ccc(F)cc2)N(CCC2=CCCCC2)C1=O (centres undefined) | . | . | . | i | 0.8 | 7.3% | 4.0 | -1.5 | 0.777
O=S(=O)(/C=C/c1ccccc1)N1CCOCC1 | 14.9 | 5.7 | 0.0 | i | -4.4 | . | -2.9 | -7.2 | 0.699
CC(C)(C)c1ccc(C(=O)N2CCN(C(=O)c3cccs3)CC2)cc1 | 4.3 | -25.6 | -3.2 | i | 0.2 | -2.0% | 0.4 | 2.8 | 0.705

Following part.
SMILES | rRNA inh HTS | rRNA inh HTS OD600 | rRNA inh HTS RFP | FGF22 binding | HNF4A DNA FP | Vif A3G | AF4-AF9 inh | ALR H2O2 inh | Ecoli growth
O=C(c1ccc(Cl)c(Cl)c1)N1CCN(Cc2ccc3c(c2)OCO3)CC1 | -26.1 | -45.3 | -3.5 | i | 0.8 | . | 0.4 | -12.6 | 0.652
C[C@H](CO)N1C[C@H](C)[C@@H](CN(C)C(=O)Nc2ccccc2)Oc2ccc(NS(=O)(=O)c3ccccc3)cc2C1=O | 4.0 | 12.5 | -0.4 | i | 1.6 | . | -2.2 | -1.8 | .
COCCOCC(=O)Nc1ccc(S(=O)(=O)Nc2cc(C)nc(C)n2)cc1 | 10.0 | 8.3 | 1.6 | i | 0.3 | -4.1% | -0.3 | . | 0.693
C[C@@H]1CCCCO[C@@H](CN(C)Cc2ccncc2)[C@H](C)CN([C@H](C)CO)C(=O)c2cc(NC(=O)C3CCCCC3)ccc2O1 | -0.3 | 4.4 | -1.6 | i | . | . | 3.4 | . | .
Cc1nn(CC(=O)N/N=C/c2ccc3c(c2)OCO3)c(C)c1Br | 7.0 | 16.5 | 18.5 | i | -1.7 | -6.6% | -2.5 | -2.6 | .
CN(C)c1ccc(/C=N/NC(=O)c2ccn(C)n2)cc1 | . | . | . | i | 0.3 | ? | -4.9 | 94.3* | .
O=C(O)c1cc2ccc3ccccc3c2oc1=O | . | . | . | . | -0.8 | 3.1% | . | -35.1 | 0.677
CC(C)(C)c1ccc(OCCC(=O)OCC(=O)N2c3ccccc3NC(=O)C2(C)C)cc1 | 0.0 | -2.1 | -0.9 | i | -3.3 | 5.5% | 1.9 | -2.2 | 0.682
Cc1ccc(C)c2[nH]c(=O)c(C(c3nnnn3C3CCCC3)N3CCOCC3)cc12 (centres undefined) | . | . | . | . | 2.9 | 20.8% | . | -5.0 | 0.684

Compounds listed so far that contain bromine (2):
SMILES | rRNA inh HTS | rRNA inh HTS OD600 | rRNA inh HTS RFP | FGF22 binding | HNF4A DNA FP | Vif A3G | AF4-AF9 inh | ALR H2O2 inh | Ecoli growth
COC(=O)COc1ccc(-c2nccc(-c3ccc(Br)cc3)n2)cc1 | 15.7 | 9.3 | 1.1 | i | 2.4 | -19.1% | 0.5 | 2.3 | 0.699
Cc1nn(CC(=O)N/N=C/c2ccc3c(c2)OCO3)c(C)c1Br | 7.0 | 16.5 | 18.5 | i | -1.7 | -6.6% | -2.5 | -2.6 | .

High-throughput results as filed in PubChem BioAssay.

Some of the compounds tested. The share of hits here may be higher or lower than overall.
